High-throughput results: PubChem BioAssay, National Center for Advancing Translational Sciences (NCATS)
TRPML1 agonist = qHTS for Agonists of the Human Mucolipin Transient Receptor Potential 1 (TRPML1) | Mucolipin-1 (Homo sapiens), Q9GZU1 | TRPML1-expressing cells, Ca2+ dye fluorescence, FDSS; host cell line not named in the record; reference of the full effect not given here | activation, % (no concentration beside the values) | 0.12% of 410,000 active | AID 624414, 2012; in the data active = activation above about 50%; inconclusive = about 30% to 50%; inactive = below about 30%; further: 0% is about no effect; the text of the record puts the active cut at 80%
Target sequence (Q9GZU1 whole entry, looked up): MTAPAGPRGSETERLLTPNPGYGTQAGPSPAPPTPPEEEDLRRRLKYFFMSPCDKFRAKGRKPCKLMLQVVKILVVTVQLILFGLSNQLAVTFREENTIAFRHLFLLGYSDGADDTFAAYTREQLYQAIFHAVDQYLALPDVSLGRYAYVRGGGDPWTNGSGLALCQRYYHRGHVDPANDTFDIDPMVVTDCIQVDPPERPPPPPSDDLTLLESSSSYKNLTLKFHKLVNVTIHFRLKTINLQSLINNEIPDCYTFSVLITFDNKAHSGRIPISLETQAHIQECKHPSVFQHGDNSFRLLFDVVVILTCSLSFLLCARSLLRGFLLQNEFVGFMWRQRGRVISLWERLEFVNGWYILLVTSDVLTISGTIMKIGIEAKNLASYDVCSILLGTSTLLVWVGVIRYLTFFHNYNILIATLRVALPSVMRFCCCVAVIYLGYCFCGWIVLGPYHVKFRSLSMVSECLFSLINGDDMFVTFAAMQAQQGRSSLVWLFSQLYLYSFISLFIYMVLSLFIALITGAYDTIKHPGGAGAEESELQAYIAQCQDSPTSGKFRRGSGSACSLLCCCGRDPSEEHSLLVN
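Calcium fluorescence on an FDSS kinetic reader gave the read-out. Tet-induced TRPML1-DL cells were plated overnight, dye-loaded (Ca8 with quencher, 45-90 min, room temperature, dark), then read 110 s after compound addition, and again 110 s after 4uM final 54-4 (EC80).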
TRPV1 potentiator = HTS Assay for Compounds that Act as Potentiators of the Vanilloid Receptor 1 | Transient receptor potential cation channel subfamily V member 1 (Homo sapiens), Q8NER1 | TRPV1-expressing cells, Fluo-8 calcium influx, capsaicin EC20 potentiation; host cell line not named in the record; control for the full effect not named in the record | potentiation, % at 8.33 µM | 0.02% of 320,000 active | AID 540277, 2011; active means potentiation above 80%; inconclusive means 30% to 80%; inactive means below 30%; further: 0% is about no effect
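TRPV1-expressing cells were cultured overnight at 35.5C and loaded with Fluo-8 calcium dye for 40 to 90 min at room temperature. After a 10 s baseline, compound was added and calcium influx was read kinetically for 3 min (ex 480/em 520 nm).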
Sfp inh = qHTS Assay for Inhibitors of Bacillus subtilis Sfp phosphopantetheinyl transferase (PPTase). 4'-phosphopantetheinyl transferase ffp (Bacillus subtilis), Q9F4F7. Biochemical Sfp PPTase activity, qHTS. Potency, µM, for inactives: max response, negative = inhibition, usual class: inhibitors. 3.5% of 310,000 active. AID 1490, 2009; active means well fitted inhibition curve with a large enough effect; inconclusive means small, poorly fitted or top-dose-only effect, or another doubt; inactive means no such curve, though single readings can be large or run the other way;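 further: the enzyme is Sfp with the accession as filed and its product quenches rhodamine fluorescence; potency means the concentration at half of the fitted maximal effect; 0% = enzyme reaction without inhibitor and -100% = no enzyme wells; top concentration of the series not given in the record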
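Step 1, compound plus 15 nM Sfp-PPTase, 15 min, room temperature. Step 2, add rhodamine-CoA (5 uM) and BHQ-2-YbbR (12.5 uM). Step 3, read 525/598 nm fluorescence at 0 and 30 min.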
PINK1 modulator = A Quantitative High throughput Screen to Identify Chemical Modulators of PINK1 Expression | PINK1 immunofluorescence, high-content cytometry, 24 h | Potency, µM (doses to about 76.6 µM), without a hit: at the highest dose activation (PINK1 increase), most hits filed as activators | 0.2% of 410,000 active | AID 624263, 2012; active = well fitted activation curve with a large enough effect; inconclusive = small, poorly fitted or top-dose-only effect; inactive = flat fitted curve, though single readings scatter; cell line not stated here;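 further: potency means the concentration at half of the fitted maximal effect; % of control where 0% means no effect; nearly all actives have a fitted effect of over 65% in size; a mitochondrial uncoupler was the plate control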
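PINK1 protein level read as immunofluorescence by microplate cytometer in a fixed, stained stable cell line after 24 h exposure to five compound concentrations, with CCCP as control.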
Menin MLL FP FL = qHTS Assay for Inhibitors Targeting the Menin-MLL Interaction in MLL Related Leukemias: Competition With Fluorescein Labeled MLL-derived Peptide; Fluorescence polarization, fluorescein-MLL peptide displacement from menin; FP activity change, % at 61.4 µM; 290,000 tested, under 10 active; AID 1766, 2009; inconclusive = falling polarisation curve, or a change in total fluorescence; inactive = total fluorescence flat and polarisation flat or rising; no compound was filed as active; the % refers to the polarisation; negative = inhibition;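 further: % of control where 0% means no effect; inhibitors lower the polarisation; unlabelled MLL peptide was the positive control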
ClpP mod = qHTS Assay for Activators of ClpP | 1.9% of 340,000 active | ATP-dependent Clp protease proteolytic subunit (Bacillus subtilis (strain 168)), P80244 | AID 651965, 2013 | Potency, µM (doses to about 57.5 µM), inactives show at the highest dose activity change, negative = active | purified B. subtilis ClpP, FRET peptide cleavage, 20 min; active = well fitted falling curve with a large enough effect; inconclusive = small, poorly fitted or top-dose-only effect; inactive = no such curve, though single readings can be large or run the other way; further: potency means the concentration at half of the fitted maximal effect; the source files actives as falling curves though it sought activators and does not explain the sign; nearly all actives have a fitted effect of over 65% in size; many hits overshoot -100%
Target sequence (P80244 whole entry, looked up): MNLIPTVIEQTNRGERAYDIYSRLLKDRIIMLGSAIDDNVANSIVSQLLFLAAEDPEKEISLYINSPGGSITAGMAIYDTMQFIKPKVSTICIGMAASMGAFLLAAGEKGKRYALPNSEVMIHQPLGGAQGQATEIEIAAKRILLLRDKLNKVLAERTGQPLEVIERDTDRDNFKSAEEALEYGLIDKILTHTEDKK
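FRET quenching reversal measured ClpP activation: 10 microg/mL B. subtilis ClpP at pH 8 with the FRET-FV decapeptide, read at 430 nm after 320 nm excitation. The 20-min minus 0-min signal was scaled between DMSO/no-enzyme wells and ADEP (5.8 microM final).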
TRPML1 inh = qHTS for Inhibitors of the Human Mucolipin Transient Receptor Potential 1 (TRPML1); Mucolipin-1 (Homo sapiens), Q9GZU1; TRPML1-inducible cells, Ca2+ dye fluorescence, FDSS; stronger effect = lower value; inhibition of EC80 agonist-evoked calcium signal; activity change, negative = inhibition, % (no concentration beside the values); 0.02% of 390,000 active; AID 624415, 2012; in the data active means activity change below about -50%; inconclusive means about -30% to -50%; inactive means above about -30%;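 further: stimulus is agonist 54-4 at its EC80 concentration; on the % scale 0 is the no-effect control and ±100 the full control effect; compound concentration not given in the record; the text of the record puts the active cut at -80%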
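TRPML1-DL cells, Tet-induced overnight (~16 h, 37 °C) at 1,500 cells/well, were loaded with Ca8 no-wash dye plus quencher for 45-90 min at room temperature. Compounds were pinned during FDSS kinetic reading; agonist 54-4 at EC80 (4 uM final) then added.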
* marks the source's active call; other numbers are inactive results; & = joins results of further samples; ! = not confirmed by another sample; [ ] = another dose, or the depositor's remark. The list is partial; rates above refer to the full screens.

`O=c1[nH]cnc2nc(-c3ccc(N(CCCl)CCCl)cc3)[nH]c12` gave TRPML1 agonist -0.3, PINK1 modulator 7.1% and TRPML1 inh 18.4.
For O=C(COc1ccccc1)N1CCN(C2CC3CCC2C3)CC1 (stereo not drawn) the results were TRPML1 agonist 0.2, TRPV1 potentiator -6.5, Sfp inh 10.0%, PINK1 modulator -0.6%, Menin MLL FP FL -6.7, ClpP mod -0.7% and TRPML1 inh -2.6.
`CC(Cc1ccccc1)/[N+]([O-])=C\c1ccc(C(F)(F)F)cc1` (stereo not drawn) gave TRPML1 agonist 2.2, TRPV1 potentiator -15.7, PINK1 modulator 2.0%, ClpP mod 0.4% and TRPML1 inh -5.2.
`COc1ccc(-n2c(=O)[nH]c3ccccc3c2=O)cc1` gave TRPML1 agonist 0.2, TRPV1 potentiator 28.1, Sfp inh -4.7%, PINK1 modulator -0.2%, Menin MLL FP FL 2.1, ClpP mod -5.1% and TRPML1 inh 10.9.
Screening O=C1NC(=O)C2=Cc3ccc(O)cc3OC2(O)N1 (stereo not drawn) returned TRPV1 potentiator inconclusive, Sfp inh -5.0% and Menin MLL FP FL inconclusive.
Screening Cn1cc(/C=C2\C(=O)NC(=O)N(c3ccccc3)C2=O)c2ccccc21 returned TRPML1 agonist 0.8, TRPV1 potentiator 19.5, Sfp inh -14.9%, PINK1 modulator inconclusive, Menin MLL FP FL inconclusive and TRPML1 inh 5.6.
Screening CCOC(=O)CNC(=O)N1Cc2cc(-c3cccc(F)c3)ccc2-n2nncc2C1 returned TRPML1 agonist -0.2, PINK1 modulator -0.6% and ClpP mod -2.2%.
Cc1cc(Cl)ccc1C(=O)C1CCCN(Cc2ccon2)C1 (stereo not drawn) was read as TRPML1 agonist 0.3, TRPV1 potentiator 0.7, Sfp inh 13.8%, PINK1 modulator -1.2%, Menin MLL FP FL -0.1 and TRPML1 inh 3.9.
Cc1cc(/C=C/c2cccc3sc(C)[n+](CCCCI)c23)ccc1N(CCCl)CCCl was read as TRPML1 agonist 13.5, PINK1 modulator 3.2% and ClpP mod 2.2%.
O=c1[nH]c(=S)n(CCC2=CCCCC2)c(O)c1/C=N/N1CCOCC1 was read as TRPML1 agonist -0.5, TRPV1 potentiator 9.6, Sfp inh -5.6%, PINK1 modulator 2.1%, Menin MLL FP FL 14.6, ClpP mod 0.2% and TRPML1 inh -8.4.
C/C(=N\Nc1ccccc1)c1c(O)n(-c2ccccc2)c(=O)[nH]c1=O was read as TRPML1 agonist 0.4, TRPV1 potentiator 3.5, Sfp inh -4.1%, PINK1 modulator 0.8%, Menin MLL FP FL 0.6 and TRPML1 inh 8.0.
Screening Nc1ncn[nH]1 returned TRPML1 agonist -0.5, Sfp inh 6.7%, PINK1 modulator 0.1%, Menin MLL FP FL -1.2, ClpP mod -2.5% and TRPML1 inh 8.8.
`O=C(Nc1ccc(F)cc1F)c1cccn(Cc2ccccc2)c1=O` gave TRPML1 agonist 0.8, TRPV1 potentiator 7.7, Sfp inh 12.2%, PINK1 modulator 3.2%, Menin MLL FP FL -0.2 and TRPML1 inh 11.6.
Screening Cc1nc2ccccc2c(=O)n1-c1ccccc1C(F)(F)F returned TRPML1 agonist -0.1, TRPV1 potentiator 1.6, Sfp inh 2.3%, Menin MLL FP FL 1.3, ClpP mod -2.6% and TRPML1 inh 8.7.
For Cc1cc(N2CCOCC2)ccc1/C=C1\C(=O)NC(=O)N(c2ccccc2)C1=O the results were TRPML1 agonist -0.7, TRPV1 potentiator 3.6, Sfp inh 35.5µM*, PINK1 modulator 2.7%, Menin MLL FP FL inconclusive and TRPML1 inh 0.6.
For Cn1c(O)c(N=Nc2cccc(S(=O)(=O)N3CCOCC3)c2)c(=O)n(C)c1=O the results were TRPML1 agonist 1.2, TRPV1 potentiator 2.2, Sfp inh -8.7%, PINK1 modulator -0.7%, Menin MLL FP FL 0.4, ClpP mod 1.6% and TRPML1 inh -3.7.
`CN1CCCC2c3ccccc3CCC21` (stereo not drawn) gave TRPML1 agonist -0.1, PINK1 modulator 1.3%, ClpP mod -7.6% and TRPML1 inh -4.4.
Screening O=C1NC(=O)N(c2ccccc2)C(=O)/C1=C/c1ccoc1 returned TRPML1 agonist 3.0, TRPV1 potentiator 0.2, Sfp inh inconclusive, PINK1 modulator 2.5%, Menin MLL FP FL inconclusive and TRPML1 inh 18.7.
Screening CC(=O)c1c(C)n(Cc2ccccc2Cl)c2ccc(O)cc12 returned TRPML1 agonist -0.6, TRPV1 potentiator -3.7, Sfp inh 7.3%, PINK1 modulator 8.4%, Menin MLL FP FL 8.8 and TRPML1 inh -2.9.
`COc1c(O)ccc2c1-c1c3c(cc4c1C(C2)N(C)CC4)OCO3` (stereo not drawn) gave TRPML1 agonist -0.6, TRPV1 potentiator 0.4, Sfp inh 7.8%, PINK1 modulator 0.1%, Menin MLL FP FL 9.2, ClpP mod inconclusive and TRPML1 inh 22.9.
`O=C(O)Cn1cc(/C=C2\C(=O)NC(=O)N(Cc3ccco3)C2=O)c2ccccc21` gave TRPML1 agonist -0.2, TRPV1 potentiator -4.6, Sfp inh 28.2µM*, PINK1 modulator -4.8%, Menin MLL FP FL inconclusive, ClpP mod 37.1% and TRPML1 inh -1.7.
Clc1ccc(COC(Cn2ccnc2)c2ccc(Cl)cc2Cl)cc1 (stereo not drawn) was read as TRPML1 agonist 0.2, TRPV1 potentiator -13.0, Sfp inh 56.2µM*!, PINK1 modulator -0.7%, Menin MLL FP FL 0.6&-1.2&1.3, ClpP mod 1.5% and TRPML1 inh 22.6.
`Cc1cc(/C=C/c2ccnc3ccccc23)ccc1N(CCCl)CCCl` gave TRPML1 agonist 0.2, PINK1 modulator 1.2% and ClpP mod 0.3%.
`O=P1(Oc2ccccc2)OCCCS1` (stereo not drawn) gave TRPML1 agonist 2.9, Sfp inh 7.0%, PINK1 modulator 0.7%, Menin MLL FP FL 1.1, ClpP mod 1.0% and TRPML1 inh 9.8.
For COP(=O)(/C=C(\Cl)c1ccccc1)/C=C(\Cl)c1ccccc1 the results were TRPML1 agonist 0.0, TRPV1 potentiator -17.5, Sfp inh 6.8%, PINK1 modulator -0.9%, Menin MLL FP FL 4.9, ClpP mod 0.6% and TRPML1 inh -8.6.
`COc1ccc(C(=O)C2CCCN(C3CSCCSC3)C2)c(OC)c1` (stereo not drawn) gave TRPML1 agonist -0.2, TRPV1 potentiator -7.7, Sfp inh 7.7%, PINK1 modulator -1.6%, Menin MLL FP FL 0.1 and TRPML1 inh -4.4.
For CN(C)c1ccc(CN2CC=C(c3ccc(F)cc3)CC2)cc1 the results were TRPML1 agonist -0.2, TRPV1 potentiator -1.0, Sfp inh -12.8%, PINK1 modulator 0.8%[38.3 µM], Menin MLL FP FL 0.7, ClpP mod -0.3% and TRPML1 inh 9.2.
For CCN(CC)CCCC(C)N=C(c1ccccc1)c1c(O)n(C)c(=O)n(C)c1=O (stereo not drawn) the results were TRPML1 agonist -0.9, TRPV1 potentiator 4.3, Sfp inh 12.3%, PINK1 modulator -0.6%, Menin MLL FP FL -0.5, ClpP mod -10.2% and TRPML1 inh -3.6.
For Cc1ccc2c(c1)C1CN(C)CCC1N2C(=O)Cn1cnc2c1c(=O)n(C)c(=O)n2C (stereo not drawn) the results were TRPML1 agonist -0.9, TRPV1 potentiator inconclusive, Sfp inh -1.9%, PINK1 modulator -0.4%, Menin MLL FP FL -0.9, ClpP mod -0.7% and TRPML1 inh 17.7.
CNNC was read as Sfp inh 11.2µM*, PINK1 modulator 0.7% and Menin MLL FP FL -6.1.

The list goes on, starting with the last 2 of the part before.
For Cc1ccc2c(c1)C1CN(C)CCC1N2C(=O)Cn1cnc2c1c(=O)n(C)c(=O)n2C (stereo not drawn) the results were TRPML1 agonist -0.9, TRPV1 potentiator inconclusive, Sfp inh -1.9%, PINK1 modulator -0.4%, Menin MLL FP FL -0.9, ClpP mod -0.7% and TRPML1 inh 17.7.
CNNC was read as Sfp inh 11.2µM*, PINK1 modulator 0.7% and Menin MLL FP FL -6.1.
`C[n+]1ccc(-c2ccccc2)c2ccccc21` gave TRPML1 agonist -0.3, TRPV1 potentiator inconclusive, PINK1 modulator 0.1%, ClpP mod 4.9% and TRPML1 inh 1.7.
`COc1cccc(C(c2nnnn2C2CCCC2)N2CCC3(CC2)C(=O)NCN3c2ccccc2)c1OC` (stereo not drawn) gave TRPML1 agonist -0.5, PINK1 modulator 0.6% and ClpP mod -0.4%.
For CCCCC1(CN2CCCC2=O)C(=O)NC(=O)NC1=O the results were TRPML1 agonist 0.5, TRPV1 potentiator 7.2, Sfp inh 9.1%, PINK1 modulator 0.8%, Menin MLL FP FL 1.9, ClpP mod -0.8% and TRPML1 inh 18.0.
Screening ClC1=C(Cl)C2(Cl)C3C4C=CC(C4)C3C1(Cl)C2(Cl)Cl (stereo not drawn) returned Sfp inh -22.4%, PINK1 modulator -0.1% and Menin MLL FP FL 0.9.
For CCOC(=O)CSCCOc1ccc(C=C2C(=O)NC(=O)NC2=O)cc1OC the results were TRPML1 agonist 0.1, TRPV1 potentiator -3.1, Sfp inh -84.7%, PINK1 modulator 0.9%, Menin MLL FP FL 2.1 and TRPML1 inh -7.7.
For CC(=NCCN1CCCCC1)c1c(O)n(-c2ccccc2)c(=O)[nH]c1=O the results were TRPML1 agonist 0.3, TRPV1 potentiator 13.8, Sfp inh 5.4%, PINK1 modulator -1.0%, Menin MLL FP FL 1.6, ClpP mod 1.3% and TRPML1 inh -11.9.
`Cc1ccnc(-n2c(-c3ccccc3)nc3ccccc3c2=O)c1` gave TRPML1 agonist -0.3, TRPV1 potentiator 8.4, Sfp inh 4.6%, PINK1 modulator 0.2%[38.3 µM], Menin MLL FP FL -0.1, ClpP mod 1.1% and TRPML1 inh -1.7.
